# Screening results (PubChem BioAssay)
# VDR inh: Inhibitors of the vitamin D receptor (VDR): qHTS | VDR-SRC2-3 peptide fluorescence polarization, 2 h | Potency, µM, inactives show max response, negative = inhibition, most hits filed as inhibitors | 400,000 tested, 0.93% active | AID 504847, 2011; active means well fitted inhibition curve with a large enough effect; inconclusive means small, poorly fitted or top-dose-only effect, or another doubt; inactive means no such curve, though single readings can be large or run the other way; further: series mostly up to about 120 µM
# Target sequence (P11473 whole entry, looked up): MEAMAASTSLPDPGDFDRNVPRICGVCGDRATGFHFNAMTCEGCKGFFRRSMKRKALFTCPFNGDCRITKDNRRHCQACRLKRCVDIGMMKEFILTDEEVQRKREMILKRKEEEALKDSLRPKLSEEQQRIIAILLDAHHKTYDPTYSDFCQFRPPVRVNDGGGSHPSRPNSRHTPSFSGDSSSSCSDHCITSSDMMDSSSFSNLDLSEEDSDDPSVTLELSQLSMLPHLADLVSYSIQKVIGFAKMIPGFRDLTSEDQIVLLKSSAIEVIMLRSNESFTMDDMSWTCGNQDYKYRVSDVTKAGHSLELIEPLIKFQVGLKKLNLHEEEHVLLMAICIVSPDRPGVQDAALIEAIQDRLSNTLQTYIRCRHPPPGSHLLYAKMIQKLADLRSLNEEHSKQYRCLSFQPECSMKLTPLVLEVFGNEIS
#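 Fluorescence polarization assay measuring small-molecule disruption of VDR binding to the coregulator peptide SRC2-3. Compounds were pin-transferred (23 nl) into the reagent mix and incubated 2 h at room temperature before reading.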
# * marks the source's active call; other numbers are inactive results; ? = inconclusive; & = joins results of further samples; [ ] = another dose, or the depositor's remark. On the % scale 0 is the no-effect control and ±100 the full control effect; potency means the concentration at half of the fitted maximal effect. A portion of the library (hit frequency here may not be typical).
molecule | VDR inh
CCOC(=O)CNC(=S)N(Cc1ccccc1)Cc1cccnc1 | -4%
CCN(Cc1ccncc1)C(=O)c1cc(COc2c(F)cccc2F)on1 | ?
CC(=O)N1CCC2(CC1)CCN(c1ccccn1)CC2 | 0%
CCCN(CCC)S(=O)(=O)c1ccc(C(=O)NNC(=O)c2cc(OC)c(OC)c(OC)c2)cc1 | -1%
COc1cccc(CS(=O)(=O)c2ccccc2)c1 | 3%
O=C(c1coc2ccccc2c1=O)N1CCN(c2cccc(C(F)(F)F)c2)CC1 | 8%
Nc1cc(C(=O)OCC(=O)NNC(=O)c2ccccc2F)ccc1Cl | -16%
COc1ccc(NC(=O)CSc2nnc(N)n2CC(=O)Nc2ccc(OC)cc2)cc1 | -20%
Cc1ccc(NC(=O)c2sc(N)nc2C)cc1 | 0%
OCCN(CCO)CC(O)CN(c1ccccc1)c1ccccc1 (centres undefined) | 9%
O=C1CCC(NC(=O)c2ccccc2)C(=O)N1 (centres undefined) | 13%
CCCC(NC(=O)c1ccco1)c1nc2ccccc2[nH]1 (centres undefined) | -16%
CC(=O)N1CCCc2ccc(NS(=O)(=O)c3ccccc3)cc21 | -9%
COC(=O)c1nnn(-c2nonc2N)c1CSc1ccccn1 | 13%
Nc1nc(Sc2ccc([N+](=O)[O-])c3nonc23)c2[nH]cnc2n1 | 14µM*
O=C(c1ccccc1)C1CCN(CC(=O)N2CCN(c3ccccc3)CC2)CC1 | 2%
NC(=O)c1ccc(C(F)(F)F)n(Cc2ccccc2Cl)c1=O | 0%
CCc1nnc(NC(=O)CN2CCN(c3cccc(OC)c3)CC2)s1 | 3%
C=C(C)CSc1nc2ccccc2c(=O)n1-c1c(C)n(C)n(-c2ccccc2)c1=O | -6%
CCn1c(=O)c(C(=O)NNC(=O)c2ccc(Cl)cc2Cl)c(O)c2ccccc21 | -5%
CC(C)=CCN1CCC2(CCc3ccccc32)CC1 | 10%
Cc1cc(OCC(=O)Nc2ccccn2)c2c(C)c(C)c(=O)oc2c1 | -28%
Cc1ccc(NC(=O)c2cc(C)n(-c3ccccc3)c2C)cc1 | 2%
CNC(=S)N/N=C(\C)c1cccc(C(F)(F)F)c1 | -2%
O=C(NCc1cccc(Br)c1)c1cnn(-c2ccc(F)cc2)c1-n1cccc1 | 4%
COc1ccc(NC(=O)c2ccccc2[N+](=O)[O-])cc1 | -7%
Cc1ccc2c(c1)C1CN(C)CCC1N2S(=O)(=O)c1ccc(C(C)C)cc1 (centres undefined) | 10%
O=C(O)CCC(=O)Nc1ccc(-c2nnc(-c3ccco3)o2)cc1 | 1%
Cc1ccccc1C(=O)Nc1nnc(SC(C)C)s1 | -6%
CCC(C(=O)NCc1ccccc1OC)n1nc(C)n2c(cc3occc32)c1=O (centres undefined) | 0%&1%
CCN1CCN(C(c2cccs2)C(C)NC(=O)c2cccc(OC)c2)CC1 (centres undefined) | ?
Cc1cc(NC(=O)C2CC(=O)N(c3cccc(C)c3C)C2)no1 (centres undefined) | 0%
CSc1ccc(/C=C/C(=O)N2CCN(c3ccccn3)CC2)cc1 | 37%[activator]
Cc1cc(C(=O)COC(=O)/C=C/c2cccc(Br)c2)c(C)n1C | -14%
CC1Cc2cc(S(=O)(=O)N3CCC(C(N)=O)CC3)ccc2N1C(=O)C1CC1 (centres undefined) | 5%
COc1ccc(-c2cc(C(F)(F)F)c(C#N)c(SCC(=O)Nc3ccc(F)cc3)n2)cc1 | -15%
CCCCN(C)CCNC(=O)c1ccc(Cn2c(=S)[nH]c3ccc(Br)cc3c2=O)cc1 | 15%
CC(=O)OC1CC(OC(C)=O)[C@]2(C)C(CC(=O)[C@]3(C)C2CC[C@@]2(C)C(c4ccoc4)OC(=O)C4O[C@@]423)C1(C)C (some centres undefined) | 28µM*
CCC1CCC(C(=O)NC(C(=O)Nc2cccc(OC)c2)C(C)C)CC1 (centres undefined) | -12%
COc1ccc(OCC(O)CNC(=O)c2ccc(Br)cc2)cc1 (centres undefined) | 22%
CCCCC/C=C\C/C=C\CCCCCCCC(=O)O[C@@H](CO)COC(=O)CCCCCCCCCCCCCCCCC | 7%&-12%
O=C(C1=C(O)C(=O)N(Cc2ccco2)C1c1ccccc1F)c1cccs1 (centres undefined) | ?
Cc1cc(=O)c(C(=O)O)nn1-c1cccc(C(F)(F)F)c1 | 14%
O=C(N/N=C/c1ccc(-c2ccccc2[N+](=O)[O-])o1)c1cccnc1 | ?
COc1ccccc1/C=C/C=N/NC(=O)CCC1C(=O)NN=C1C (centres undefined) | -29%
O=S(=O)(c1ccc2ccccc2c1)N1CCN(C(=S)Nc2ccccc2F)CC1 | -17%
CCOCCCNC(=O)C(NC(=O)CNC(C)=O)c1ccc(C)cc1 (centres undefined) | -7%
COc1cccc(NC(=O)NC2CCN(Cc3nnnn3Cc3ccc(F)cc3)CC2)c1 | -1%
CC(=O)N1CCN(c2ccc([N+](=O)[O-])c(NCc3cccnc3)c2)CC1 | 6%
CCC(C(=O)NC1CCCCC1)N(Cc1cccs1)C(=O)c1snc(C(N)=O)c1N (centres undefined) | -4%
CCCCNC(=O)CS(=O)Cc1nc(-c2ccc(C)cc2)oc1C (centres undefined) | 11%
Cc1ccc(C(=O)Nc2cccc(C(F)(F)F)c2)cc1NC(=O)c1c[nH]c2cc(C(F)(F)F)ccc2c1=O | -10%
COc1ccc(CN2CCC(n3nccc3NC(=O)C3CC3)CC2)c(OC)c1OC | -13%
CCCCC1(C(=O)OC)NC(c2ccc(O)cc2)C2C(=O)N(c3ccccc3)C(=O)C21 (centres undefined) | -21%
COC(=O)c1[nH]c2cccc(OC)c2c1NC(=O)CN1CCC(C(N)=O)(N2CCCCC2)CC1 | -7%
C#CCOCCOCCOCCNc1nc(N2CCN(C(=O)[C@H](C(C)C)n3cc(CCO)nn3)CC2)nc(N2CCN(C(=O)[C@H]([C@@H](C)CC)n3cc(CCCCN)nn3)CC2)n1 | 0%
COC(=O)c1ccc(C(=O)OC)c(NC(=O)c2cnn3c(C(F)F)cc(-c4ccc(C)cc4)nc23)c1 | ?
CC(Nc1ccc(S(=O)(=O)N2CCN(C)CC2)cc1[N+](=O)[O-])c1ccccc1 (centres undefined) | -8%
O=C(Nc1ccc(CN2CCCCC2)cc1)c1cc(Br)ccc1Cl | -6%
CC1=NN(C(C#N)c2ccccc2O)C(C)(C)C1 (centres undefined) | 0%

# Remaining list, next part:
molecule | VDR inh
COc1ccc(N2CCN(c3cc(C)c4ccccc4n3)CC2)cc1 | 7%
CN1C(=O)COc2ccc(C(=O)c3ccccc3C(=O)O)cc21 | -6%
CC(C)CC(NC(N)=O)C(=O)NCc1ccccc1Cl (centres undefined) | -2%
CCNC(=O)c1ccc(NC(=O)CC2SC(N3CCCCC3)=NC2=O)cc1 (centres undefined) | -8%
CC(=O)Oc1ccc(N(C(C)=O)S(=O)(=O)c2ccc(Cl)cc2)c2ccccc12 | 25%
O=C(C1=C[C@H](c2coc3ccccc3c2=O)C[C@H](OCc2ccc(CO)cc2)O1)N1CCOCC1 | -2%
CC1CCC(N2CCN(c3ncccn3)CC2)CC1 (centres undefined) | 10%
CCC(C)NC(=S)N1CCN(Cc2ccccc2)CC1 (centres undefined) | -6%
Cc1nn(C)c(Cl)c1NC(=O)OCc1ccc(Cl)cc1Cl | -4%
Cc1cc(C)cc(NC(=O)N2CCCN(Cc3c(F)cccc3Cl)CC2)c1 | 18%
Cc1cc(C)n(-c2nc3sc4c(c3c3nnc(SC(C)C)n23)CC(C)(C)OC4)n1 | -4%
CN(C)c1ncc2nc(-c3cccs3)c(=O)n(-c3ccccc3)c2n1 | -12%
COC(=O)c1ccc(C)c(NS(=O)(=O)c2cn(C)nc2C)c1 | -1%
O=C(Cn1ccc2ccccc2c1=O)Nc1ccc2c(c1)OCO2 | -3%
C/C(N)=C(/C#N)C(=O)COC(=O)c1ccccc1O | 3%
COc1ccccc1NC(=O)Cn1c(=O)n(-c2cccc(C(C)=O)c2)c(=O)c2c3c(sc21)CN(C(C)=O)CC3 | 8%
C=CCN1C(=O)C(O)=C(C(C)=O)C1c1ccccc1F (centres undefined) | -12%
CC(NC(=O)CN1CCCC1)C12CC3CC(CC(C3)C1)C2 (centres undefined) | -8%
CC(C)c1ccc(NC(=O)COC(=O)CCC(=O)c2cccs2)cc1 | 7%
CCN(C(=O)CSc1nc2ccccc2c(=O)n1-c1ccc(C)cc1)C1CCS(=O)(=O)C1 (centres undefined) | 1%
CC(O)CNCCNCc1cccs1 (centres undefined) | 2%
CCc1nn(CC(=O)NCCCN(Cc2ccccc2)C(C)C)c(=O)c2cc3sccc3n12 | -2%
COc1ccc(N2C(=O)CC(N3CCN(c4ccc(Cl)cc4)CC3)C2=O)cc1 (centres undefined) | -1%
CCOC(=O)c1cccc(NC(=O)CSc2ncc3c(n2)-c2ccccc2N(C)S3(=O)=O)c1 | 7%

# Going on with the list:
compound	VDR inh
COc1ccccc1-n1c(C)nc2cc(C(=O)NCc3ccc4c(c3)OCO4)ccc21	-15%
CCOc1ccccc1N(C)C(=O)c1cc(S(=O)(=O)NCc2ccc(C)cc2)ccc1F	12%
CCOc1ccccc1Nc1ncnc2ccc(Br)cc12	-3%
COc1ccc(CNC(=O)c2cnc(N3CCOCC3)c3ccccc23)cc1	10%
CCOc1ccccc1N(C(=O)CNC(=O)c1ccco1)C(C(=O)NC1CCCC1)c1ccncc1 (centres undefined)	-14%
C=CCn1c(SCC(=O)Nc2sc3c(c2C#N)CCC3)nnc1C1COc2ccccc2O1 (centres undefined)	17%
Cc1ccc(S(=O)(=O)c2cnc(-c3ccccc3)nc2N2CCCCC2)cc1	3%
O=C(Nc1ccccc1C(=O)OCc1cc(=O)n2c3c(sc2n1)CCCC3)c1ccc(Cl)cc1	9%
CCOC(=O)Cc1c[nH]c(=S)[nH]c1=O	2%
CCN(CC)C(=O)CSc1nnc2cc(C)c3ccccc3n12	-18%
N#C/C(=C\c1ccc(Sc2nc3ccccc3[nH]2)o1)c1ccccc1	14%
Cc1ccc2nc(-c3ccncc3)cc(C(=O)Nc3ccncc3)c2c1	-2%
Cc1onc(-c2ccccc2)c1C(=O)OCCOc1ccc([N+](=O)[O-])cc1[N+](=O)[O-]	-16%
Cc1scc(C(=O)NNC(=S)NCC(C)C)c1C	-7%
CN1c2ccsc2/C(=N/NC(=O)c2c(F)cccc2F)CS1(=O)=O	13%
Cc1cccc(C(=O)NCc2nnc3c4ccccc4c(-c4ccccc4)nn23)c1	-4%

# Retrieved one by one from above:
compound	VDR inh
CN1c2ccsc2/C(=N/NC(=O)c2c(F)cccc2F)CS1(=O)=O	13%
Cc1cccc(C(=O)NCc2nnc3c4ccccc4c(-c4ccccc4)nn23)c1	-4%
Cc1onc(-c2ccccc2)c1C(=O)OCCOc1ccc([N+](=O)[O-])cc1[N+](=O)[O-]	-16%
Cc1scc(C(=O)NNC(=S)NCC(C)C)c1C	-7%
CCOC(=O)Cc1c[nH]c(=S)[nH]c1=O	2%
Cc1ccc2nc(-c3ccncc3)cc(C(=O)Nc3ccncc3)c2c1	-2%
CCN(CC)C(=O)CSc1nnc2cc(C)c3ccccc3n12	-18%

# Continued.
compound	VDR inh
Cn1c(SCC(=O)NC2CCCC2)nnc1-c1cccs1	0%
CCN(CC)CCNC(=O)C(=O)Nc1ccc2c(c1)N(S(=O)(=O)c1cccs1)CCC2	8%
COc1cccc(OCC(=O)Nc2ccncc2)c1	-9%
CC1(C)Cc2cccc(C(=O)Nc3ccc(F)cc3F)c2O1	0%
COC(=O)c1ccc(N2CCOCC2)c(NC(=O)c2cccs2)c1	-6%
CC[C@H](c1ccc(O)cc1)[C@@H](CC)c1ccc(O)cc1	-13%
CC(NC(=O)C(=O)c1cn(CC(=O)N2CCOCC2)c2ccccc12)c1ccccc1 (centres undefined)	19%
Cc1cc(OCC(=O)O/N=C(\N)c2ccccc2)ccc1Cl	11%
COc1ccc(S(=O)(=O)N2CCOCC2)cc1NC(=O)COC(=O)C1CCC1	2%
COc1ccc(NC(=O)c2ccc(-c3nc(CSc4ccc(C)cc4)c(C)o3)cc2)cc1Cl	-1%
CCC(C)N=Cc1c(Nc2ccccc2)nc2c(C)cccn2c1=O (centres undefined)	?
CCOC(=O)c1c(C)[nH]c(CCC(=O)Nc2ccc(OC)c(OC)c2)c1C	-7%
COc1ccc(-c2[nH]ncc2C(=O)NCc2cccc(OC)c2)cc1	1%
CCN(CC)C(=O)Cn1c(=O)n(CCc2ccccc2)c(=O)c2ccccc21	10%
CCOC(=O)C(C)Sc1snnc1C (centres undefined)	-5%
CCOc1cc(/C=C/C(=O)O)ccc1OCc1ccccc1	1%

# The final 6 entries of the section before open the next one:
compound	VDR inh
CCC(C)N=Cc1c(Nc2ccccc2)nc2c(C)cccn2c1=O (centres undefined)	?
CCOC(=O)c1c(C)[nH]c(CCC(=O)Nc2ccc(OC)c(OC)c2)c1C	-7%
COc1ccc(-c2[nH]ncc2C(=O)NCc2cccc(OC)c2)cc1	1%
CCN(CC)C(=O)Cn1c(=O)n(CCc2ccccc2)c(=O)c2ccccc21	10%
CCOC(=O)C(C)Sc1snnc1C (centres undefined)	-5%
CCOc1cc(/C=C/C(=O)O)ccc1OCc1ccccc1	1%
CCOC(=O)N1CCN(C(=O)c2cccc(F)c2)CC1	2%
CC1=NN(c2ccc(Br)cc2)C(=O)/C1=C/c1cccs1	?
CC(=O)N(c1ccccc1C)c1ccccc1C	1%
CCOc1ccc(N(CC(=O)NCc2ccc(OC)cc2)C(=O)CCC(=O)Nc2nccs2)cc1	-26%
CCCOc1cccc(C(=O)Nc2ccc(Br)cc2F)c1	7%
O=C(Cn1ncc2c1-c1ccccc1OC2)N1CCN(c2ccccn2)CC1	-25%
O=C(CN(Cc1ccc(F)cc1)C(=O)C1CSC(=O)C1)NC1CCCCC1 (centres undefined)	5%
